Compound activity from PubChem BioAssay.
UUG fidelity: alters start codon recognition fidelity in yeast. S. cerevisiae UUG-firefly luciferase reporter, luminescence/redox ratio. activity score, % at 18.7 µM. 350,000 tested, 0.13% active. AID 602363;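 active means replicate mean at a twofold rise or more, about +100% in these data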;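 further: firefly luciferase made from a UUG start codon reports start codon fidelity; reporter light over untreated wells divided by growth signal over untreated wells; some hits fall short of that in this replicate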
Rce1 inh: blocks yeast Ras-converting enzyme | Q03530 | yeast membranes, quenched prenylated peptide cleavage fluorescence | calls only | 290,000 tested, 0.27% active | AID 2563;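 active means fall in fluorescence gain of 50% or more versus controls, with final raw signal at or below 3038400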;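 further: plate controls were neutral control wells for no effect and wells lacking membranes for full effect; tested at 10 µM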
Target sequence (Q03530 whole entry, looked up): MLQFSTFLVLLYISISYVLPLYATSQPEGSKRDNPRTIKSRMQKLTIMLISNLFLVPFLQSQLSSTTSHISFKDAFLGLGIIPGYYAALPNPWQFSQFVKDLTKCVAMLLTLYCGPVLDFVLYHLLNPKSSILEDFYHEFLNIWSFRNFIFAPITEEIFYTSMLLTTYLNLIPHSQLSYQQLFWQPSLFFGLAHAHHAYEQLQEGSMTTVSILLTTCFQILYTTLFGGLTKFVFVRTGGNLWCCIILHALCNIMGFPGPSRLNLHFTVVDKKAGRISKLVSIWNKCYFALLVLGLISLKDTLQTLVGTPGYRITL
Env fusion inh: inhibitors of HIV Env-mediated cell fusion; HeLa-JRFL Env/CEM21 cell fusion, luciferase; inhibition, % at 12.3 µM; 360,000 tested, 1.1% active; AID 651610;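 active means mean replicate inhibition score of at least 50 and every replicate individually at or above 50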;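 further: 0% = plate neutral controls and 100% = maraviroc near 300 nM; one replicate is shown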
eIF4H inh: inhibitors of RNA binding by human eIF4H | eIF4H fluorescence polarization binding assay | 290,000 tested, 0.94% active | inhibition, % at 35 µM | Q15056;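 active means 50% or more with normal probe brightness, or confirmed in later tests; about a fifth of its hits are not listed in these tables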;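 further: calls also rest on retests at 20 µM and on dose response follow-up; 0% = protein and probe with vehicle and 100% = probe without protein; strong numbers were not always called active; many hits fall short of the cut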
MT1-MMP act inh: inhibitors of human MT1-MMP activation | P50281 | HT1080 RFP-PRO-GFP cells, GFP/RFP ratio fluorescence, overnight; percent of plate control window, DMSO zero | GFP/RFP ratio change, % at 20 µM | 360,000 tested, 0.061% active;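 active means GFP/RFP ratio change of at least 30% with cell ATP level not reduced by more than half and red fluorescence within 50% of control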; further: strong numbers were not always called active
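Material: RFP-PRO-GFP reporter HT1080 cells. Dosing: single-point 20 µM compound, 1% DMSO. Controls: DMSO and RFP-L50D-GFP cell wells. Timing: cells overnight before dosing, compound overnight, 37 °C, 5% CO2. Measure: GFP/RFP fluorescence ratio.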
PABP polyA inh: blocks human PABP binding to poly(A) RNA | inhibition, % at 35 µM | 290,000 tested, 1% active | fluorescence polarization | P11940;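 active means 50% or more with normal probe brightness, or confirmed in later tests; about a fifth of its hits are not listed in these tables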;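 further: calls also rest on retests at 20 µM and on dose response follow-up; controls were probe without protein and protein plus probe with vehicle; some compounds called inactive have numbers as strong as hits; many hits fall short of the cut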
CSC inhib: cancer stem cell inhibition | cancer stem cell-like cells viability, luminescence | inhibition, % at 7.5 µM | 300,000 tested, 1.1% active;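 active means mean at 75% or more and at least half the replicates too; tested in HMLE shEcad cells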;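 further: 0% = median of negative and 100% = median of positive control wells; the first replicate is given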
MT1-MMP act inh RFP: recorded beside MT1-MMP act inh, whose call it bears; RFP signal change, %; measured here: RFP expression control read;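 0 = vehicle wells; hits needed this value within 50% of zero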
* = called active by the depositor; i = inactive; . = not tested or not shown; & = joins results of further samples. These rows are one share of the data; the hit share may differ from the screen's.

Results follow in this order: MT1-MMP act inh RFP, eIF4H inh, MT1-MMP act inh, UUG fidelity, Rce1 inh, CSC inhib, Env fusion inh, PABP polyA inh
O=[N+]([O-])C(=C1SCCS1)C(=C(Cl)Cl)N1CCCCC1
 : -2, -6, 0, ., i, 4, -3, -9
CCN1CCCC1CNC(=O)c1cc2c(OC)c(OC)c(OC)cc2[nH]1 (stereo unspecified)
 : 1, 0, 2, -9, i, 1, -15, -1
Cc1cc(C)n(C(=O)c2ccc(NC(=O)CC(C)C)cc2)n1
 : 0, -5, 0, -5, i, -15, 4, 1
CSc1sc(C#N)c2c1/C(=N\O)CCC2
 : -1, -14, -3, ., ., -5, 3, -6
C=CC[C@@H](CC(=O)N(CCO)Cc1ccccc1)C(=O)N[C@H](COC(=O)[C@@H](CC=C)CC(=O)OC(C)(C)C)C(C)(C)C
 : -17, ., -23, -10, ., ., -27, .
COc1ccccc1CCNC(=O)/C(=C/c1cccnc1)NC(=O)c1ccccc1
 : -1, 0, -2, ., i, -27, 2, 22
CCOc1ccc(C(O)(c2ccccc2OC)C(CN2CCCC2)c2ccccc2)cc1 (stereo unspecified)
 : 2, -6, -3, -7, i, -4, 1, 18
O=S(=O)(Nc1ccc2c(c1)OCO2)c1ccc(Br)s1
 : -4, 21, -2, -13, i, -10, -25, 2
COc1cc(Nc2ncnc(N)n2)cc(OC)c1
 : -4, -3, -2, ., i, -8, -10, -6
CC1CC(C)(C)NC(=S)N1CCC(=O)NCc1ccc(Cl)cc1 (stereo unspecified)
 : -5, -2, -4, ., i, -12, 3, -7
Cc1cccn2c(=O)c3cc(C(=O)NCC4CCCO4)c(=N)n(Cc4cccnc4)c3nc12 (stereo unspecified)
 : 2, 3, -2, -4, ., ., -10, 8
CN(C(=O)c1ccncc1)C1CCCN(Cc2ccccc2F)C1 (stereo unspecified)
 : 3, 2, -1, -13, i, -6, -8, -6
COc1cc(NC(=O)CSc2nnc(C)s2)cc(OC)c1OC
 : 4, -2, 2, -6, i, -5, ., 6
O=C(NCc1n[nH]c(=S)n1Cc1ccccc1)c1ccc(Cl)cc1Cl
 : 0, -10, 5, ., i, -10, 38, -2
O=C(NCc1cccnc1)C1CC(c2ccc(Cl)c(Cl)c2)=NO1 (stereo unspecified)
 : -2, 0, 1, -11, i, 60, -12, 2
CCN1C(=O)CC(N2CCN(CC(=O)NC(C)C)CC2)C1=O (stereo unspecified)
 : 3, 0, -2, -11, i, -10, -74, 7
COc1ccc(S(=O)(=O)N(C)C)cc1NC(=O)CSC(C)C(=O)Nc1cc(C)on1 (stereo unspecified)
 : 2, ., -3, -15, ., -9, -8, .
CC(C)CC(=O)Nc1ccc(C(=O)COc2ccc(-c3nnco3)cc2)cc1
 : 2, 1, -2, -17, ., -18, -8, -5
CCCCn1nc(C(=O)N(C)CC(=O)Nc2cccc(F)c2)c2ccccc2c1=O
 : 0, ., 0, 2, i, 0, 4, .
CCOC(=O)CSC1=N/C(=C/c2ccc(-n3cncn3)cc2)C(=O)N1C(C)=O
 : -2, 1, -3, -13, i, -11, -28, 16

Twelve entries already listed, ordered by molecular weight, ascending.
Results follow in this order: MT1-MMP act inh RFP, eIF4H inh, MT1-MMP act inh, UUG fidelity, Rce1 inh, CSC inhib, Env fusion inh, PABP polyA inh
COc1cc(Nc2ncnc(N)n2)cc(OC)c1
 : -4, -3, -2, ., i, -8, -10, -6
CN(C(=O)c1ccncc1)C1CCCN(Cc2ccccc2F)C1 (stereo unspecified)
 : 3, 2, -1, -13, i, -6, -8, -6
O=C(NCc1cccnc1)C1CC(c2ccc(Cl)c(Cl)c2)=NO1 (stereo unspecified)
 : -2, 0, 1, -11, i, 60, -12, 2
CC1CC(C)(C)NC(=S)N1CCC(=O)NCc1ccc(Cl)cc1 (stereo unspecified)
 : -5, -2, -4, ., i, -12, 3, -7
COc1cc(NC(=O)CSc2nnc(C)s2)cc(OC)c1OC
 : 4, -2, 2, -6, i, -5, ., 6
O=S(=O)(Nc1ccc2c(c1)OCO2)c1ccc(Br)s1
 : -4, 21, -2, -13, i, -10, -25, 2
CC(C)CC(=O)Nc1ccc(C(=O)COc2ccc(-c3nnco3)cc2)cc1
 : 2, 1, -2, -17, ., -18, -8, -5
COc1ccccc1CCNC(=O)/C(=C/c1cccnc1)NC(=O)c1ccccc1
 : -1, 0, -2, ., i, -27, 2, 22
CCCCn1nc(C(=O)N(C)CC(=O)Nc2cccc(F)c2)c2ccccc2c1=O
 : 0, ., 0, 2, i, 0, 4, .
CCOc1ccc(C(O)(c2ccccc2OC)C(CN2CCCC2)c2ccccc2)cc1 (stereo unspecified)
 : 2, -6, -3, -7, i, -4, 1, 18
Cc1cccn2c(=O)c3cc(C(=O)NCC4CCCO4)c(=N)n(Cc4cccnc4)c3nc12 (stereo unspecified)
 : 2, 3, -2, -4, ., ., -10, 8
COc1ccc(S(=O)(=O)N(C)C)cc1NC(=O)CSC(C)C(=O)Nc1cc(C)on1 (stereo unspecified)
 : 2, ., -3, -15, ., -9, -8, .

Later entries.
Results follow in this order: MT1-MMP act inh RFP, eIF4H inh, MT1-MMP act inh, UUG fidelity, Rce1 inh, CSC inhib, Env fusion inh, PABP polyA inh
c1ccc(CCNc2c3c(nc4ncnn24)CCC3)cc1
 : -12, -4, -3, -21, i, 8, -1, 0
Cc1ccc(CN(CC(=O)NC2CCCC2)C(=O)CSc2nnc(COc3ccccc3)o2)cc1
 : -2, 4, -2, -17, i, -13, -24, 5
O=C(Nc1ccccc1C(=O)Nc1nncs1)c1ccccc1
 : -14, 0, 9, -21, i, 31, 0, -3
Cc1nc(NC(=O)c2ccccc2)sc1-c1csc(NCCc2ccccc2)n1
 : 7, 29, -17, -33, i, 9, -61, 34
CN(C)c1ccc(C(=O)N2CCN(c3cc(C(F)(F)F)nc4ccccc34)CC2)cc1
 : -5, 2, 2, -9, i, 4, 22, -1
CCOc1ccc(NC(=O)C2CC(=O)NC(N3CCc4ccccc43)=N2)cc1 (stereo unspecified)
 : 7, -8, -1, -3, i, 4, -10, -9
CC(Oc1cccc(Cl)c1)C(=O)Nc1ccncc1 (stereo unspecified)
 : -7, 6, 3, ., i, -5, -7, 10
COc1cccc(C(=O)CSc2nnc(CNS(=O)(=O)c3ccc(C)cc3)n2C)c1
 : 1, -2, 3, ., i, ., ., 6
COc1ccccc1OCc1ccc(C(=O)N2CCCCC2)o1
 : -2, 0, -1, 4, i, 3, 1, 6
O=C(CSc1nnnn1-c1ccccc1)N1CCNC1=O
 : -2, -4, 3, -10, i, -2, -8, 2
CCOc1cc(CN2CCN(C(=O)CC(C)C)CC2)ccc1OC
 : -1, 8, -1, -6, i, -10, ., 6
O=c1c2sccc2nc(SCc2cc(=O)n3ccccc3n2)n1-c1ccc(Br)cc1
 : -10, 1, -15, -2, i, -8, ., -13
Cc1ccc(SCC(=O)NCCc2ccc(F)cc2)cc1
 : 1, 7, 0, -19, i, -8, -6, -8
O=CN1CCN(C2CC(=O)N(c3ccc(Br)cc3)C2=O)CC1 (stereo unspecified)
 : 3, 7, 3, -11, i, 6, ., -2
COc1ccc(C(NC(=O)C2CCN(CCOc3ccc(Cl)cc3Cl)CC2)c2ccccn2)cc1 (stereo unspecified)
 : -1, ., -1, -20, ., ., 11, .
COc1ccccc1OCC(=O)N/N=C1/SCC(=O)N1Cc1ccccc1
 : 2, -6, -5, 5, i, 1, 31, -3
CCN(C(=O)c1cnc(OC)cc1C(F)(F)F)c1ccc(Cl)cc1Cl
 : 2, -5, -2, -1, i, -3, 8, -13
COc1ccc(S(=O)(=O)N2CCN(CC(O)CN3CCOCC3)CC2)cc1 (stereo unspecified)
 : 3, ., 0, -27, ., ., -6, .
COc1ccc(S(=O)(=O)Nc2ccc3c(c2)C(=O)N([C@H](C)CO)C[C@H](C)[C@@H](CN(C)C(=O)Nc2c(C)noc2C)O3)cc1
 : 2, ., 2, -15&-6, ., ., 5, .
CN(c1ccccc1C(=O)N1CCOCC1)S(C)(=O)=O
 : 2, -11, 2, -25, ., -21, ., -2
O=C(O)c1nnn(-c2cccc(C(F)(F)F)c2)c1-c1ccccc1
 : 4, -3, 0, -3, i, -3, -2, 2
COc1ccc(C(CNS(=O)(=O)c2ccc(NC(C)=O)c(OC)c2)N2CCCC2)cc1 (stereo unspecified)
 : 4, ., -5, -8, ., 1, 3, .
Cc1ccc(S(=O)(=O)NCCC(=O)O)cc1
 : ., 4, ., -5, i, 6, ., -2
CCOc1ccc(C(C)=O)cc1N1C(=O)C2C3C=CC(C3)C2C1=O (stereo unspecified)
 : -3, 42, -6, -3, i, -8, ., 14
CCc1ccc(C(C(=O)NC2CCCC2)N(Cc2cccnc2)C(=O)c2csnn2)cc1 (stereo unspecified)
 : 6, -4, 2, -23, i, -10, 6, -5
C/C(=N/NC(=O)c1cnccn1)c1cccs1
 : 0, 2, -1, -13, i, 8, -21, 3
CCOc1cccc(C2/C(=C(\O)c3ccc4c(c3)OCCO4)C(=O)C(=O)N2Cc2ccncc2)c1 (stereo unspecified)
 : 4, -2, 0, -20, i, -3, 5, -3
CCOC(=O)Cc1csc(NC(=O)COc2ccc3ccccc3c2)n1
 : 2, -4, -1, -15, i, -4, -12, -8
Cc1ccccc1C(=O)N1CCCN(C(=O)c2ccccc2C)CC1
 : 16, -1, 2, -9, i, -2, -31, -1
COc1ccc(NC(=O)CCCn2c(=O)c3sccc3n(Cc3ccccc3C)c2=O)cc1
 : -4, 3, 3, -3, i, 10, -2, 16
O=C(CN1CCN(Cc2ccccc2Cl)CC1)N/N=C/C=C/c1ccccc1[N+](=O)[O-]
 : -2, -1, 0, -15, i, 4, 18, -19
CCC(C)NC(=O)c1cn(-c2cccc(OC)c2)c(=O)c2ccccc12 (stereo unspecified)
 : 6, -3, 3, -10, i, -14, -7, 0
COC(=O)c1ccccc1Sc1c(/C=N/OC(=O)c2ccccc2)c(C(F)(F)F)nn1C
 : -5, 0, 0, ., i, 1, ., 12
Cc1ccc(S(=O)(=O)Nc2ccc(C(=O)NCCCn3ccnc3)cc2)cc1[N+](=O)[O-]
 : 2, ., 0, -16, ., -6, ., .
O=C(O)C(Cc1ccccc1)N1C(=O)CCC1=O (stereo unspecified)
 : -4, -2, -3, ., i, 1, 0, -12
O=C(O)Cc1ccc2[nH]c3ccc(CC(=O)O)cc3c2c1
 : 2, -15, 3, -5, i, -8, ., -3
C=CCNc1nc(N)c([N+](=O)[O-])c(NCCO)n1
 : 2, 4, -2, ., i, -8, 2, 1
CCc1cccc(NC(=O)COC(=O)c2cc(=O)c3ccccc3o2)c1
 : 1, ., 2, -27, ., ., -13, .
Nn1cnnc1SCC(=O)Nc1ccc(C2CCCCC2)cc1
 : 3, 1, -5, ., i, -2, ., -11
Cc1ccc(S(=O)(=O)N[C@H](C(=O)OCC(=O)NC(=O)Nc2ccc3c(c2)OCCO3)C(C)C)cc1
 : 1, -3, 2, ., i, ., 3, -8
COc1cc2c(cc1OC)C(c1ccc3c(c1)OCO3)CC(=O)N2 (stereo unspecified)
 : 1, -1, 1, ., i, 4, ., -4
CCOc1cc(C2C(C#N)=C(N)Oc3n[nH]c(-c4ccccc4)c32)ccc1O (stereo unspecified)
 : -4, -22, -5, -8, i, -9, -17, -19
Cc1cc2c(C)ccc(C)c2nc1SCC(=O)c1cccs1
 : -3, -12, -17, -22, i, 17, 0, -11
Cc1ccc(COc2ccsc2-c2n[nH]c(=S)n2C)cc1
 : -4, 0, 0, -15, i, 9, -45, -2
Cc1ccccc1NS(=O)(=O)c1ccc(C(=O)NCC(c2ccco2)N(C)C)cc1 (stereo unspecified)
 : -8, ., 3, -16, i, -2, -2, .
CC(=O)c1sc(NC(=O)COc2ccc(C)c(C)c2)nc1C
 : 5, 12, 0, 1, i, -6, ., 1
